VDR inhibitor – blocks the human vitamin D receptor | Potency, µM, for inactives: max response, negative = inhibition, hits mostly inhibitors | VDR-SRC2-3 peptide fluorescence polarization, 2 h | P11473 | AID 504847 | 0.93% of 400,000 active; active = well fitted inhibition curve with a large enough effect; inconclusive = small, poorly fitted or top-dose-only effect, or another doubt; inactive = no such curve, though single readings can be large or run the other way; also: series mostly up to about 120 µM
Target sequence (P11473 whole entry, looked up): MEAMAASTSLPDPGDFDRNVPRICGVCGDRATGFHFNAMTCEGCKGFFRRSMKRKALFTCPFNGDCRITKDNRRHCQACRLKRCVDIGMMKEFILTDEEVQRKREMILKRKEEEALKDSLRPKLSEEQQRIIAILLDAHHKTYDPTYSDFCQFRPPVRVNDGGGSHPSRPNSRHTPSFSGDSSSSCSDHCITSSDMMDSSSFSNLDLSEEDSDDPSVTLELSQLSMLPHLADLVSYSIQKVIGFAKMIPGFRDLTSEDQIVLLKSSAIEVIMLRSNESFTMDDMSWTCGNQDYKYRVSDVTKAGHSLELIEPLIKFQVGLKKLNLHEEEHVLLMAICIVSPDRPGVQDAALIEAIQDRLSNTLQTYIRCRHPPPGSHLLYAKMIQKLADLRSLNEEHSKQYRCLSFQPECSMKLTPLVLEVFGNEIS
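VDR–SRC2-3 interaction, FP format. Cmpds 23 nl via pintool, brief spin, 2 h ambient incubation.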
An asterisk follows results filed as active; & = joins results of further samples. % is scaled to controls: 0 for no effect and ±100 for the full control effect; potency is read from the fitted curve at half-maximal effect. Some of the compounds tested, so the mix of outcomes need not match the whole.

`CCCCn1c(SCC(=O)N(CC)C2CCS(=O)(=O)C2)nnc1C(CC)N(C)C` (configuration not stated) gave VDR inhibitor 8%.
CC1(C)NC(=O)N(CCOCCSc2ccccc2)C1=O was read as VDR inhibitor 4%.
Screening Cc1sc(NC(=O)Cn2nc(C(F)(F)F)cc2C)c(C(=O)OC(C)C)c1C returned VDR inhibitor -20%.
For CN1C(=O)c2ccccc2Sc2ccc(NC(=O)NCc3ccc(Cl)cc3)cc21 the results were VDR inhibitor 5%.
COc1ccc(C2N=C(c3ccccc3)NC(c3ccccc3)=N2)cc1 was read as VDR inhibitor 13%.
Screening Cc1cc(=O)[nH]c(SCC(N)=O)c1C#N returned VDR inhibitor 3%.
Screening O=C(c1ccccc1)N1CCN(c2ncnc3c(-c4ccccc4)nsc23)CC1 returned VDR inhibitor -4%.
Screening CC(=O)N1c2ccccc2N(Cc2ccc(C)cc2C)C(=O)C1(C)C returned VDR inhibitor -18%.
For Cc1ccc2c(c1)C(O)(CC(=O)c1cccc(-n3cccc3)c1)C(=O)N2 (configuration not stated) the results were VDR inhibitor -10%.
CCCCn1c(N)c(N(CCOC)C(=O)c2cc(-c3ccc(F)cc3)nc3ccccc23)c(=O)[nH]c1=O was read as VDR inhibitor 11%.
`CCOC(=O)C(=CNc1ccc(Cl)cn1)C(=O)OCC` gave VDR inhibitor -12%.
For COc1cccc(CNCCc2c[nH]c3ccccc23)c1OCc1ccccc1 the results were VDR inhibitor -6%.
`COc1ccccc1OCCC(=O)OCC(=O)Nc1ccc2c(c1)OCO2` gave VDR inhibitor -8%.
Screening Cc1ccc(NC(=O)CCNC(=O)c2ccco2)cc1Cl returned VDR inhibitor 12%.
`COc1cc(-c2nnc(CSc3nnc(N)s3)o2)cc(OC)c1OC` gave VDR inhibitor -13%.
For O=C(NCC1CCCO1)c1ccc(NC(=O)c2ccc(Br)cc2)cc1 (configuration not stated) the results were VDR inhibitor -4%.
`COc1ccc(Cc2nnc(NC(=O)c3ccccc3[N+](=O)[O-])s2)cc1` gave VDR inhibitor 5%.
Screening CN(C(=O)Cc1c[nH]c2ccccc12)C(C(=O)Nc1ccc2c(c1)OCO2)c1ccccc1 (configuration not stated) returned VDR inhibitor -1%.
CCOc1ccc(-n2c(SCC)nc3c(c2=O)SCC3)cc1 was read as VDR inhibitor -1%.
For COc1ccc(CCNC(=O)CS(=O)Cc2nc(-c3cccs3)oc2C)cc1OC (configuration not stated) the results were VDR inhibitor -18%.

2 records picked at random from the list so far:
CCOc1ccc(-n2c(SCC)nc3c(c2=O)SCC3)cc1 was read as VDR inhibitor -1%.
For O=C(NCC1CCCO1)c1ccc(NC(=O)c2ccc(Br)cc2)cc1 (configuration not stated) the results were VDR inhibitor -4%.

(list continues)
CCOC(=O)Nc1ccc2c(c1)N(C(=O)CN(CC)CC)c1ccccc1C=C2 was read as VDR inhibitor -3%.
For CC(=O)N(CCCNC(=O)c1ccccc1)C(=O)c1ccccc1 the results were VDR inhibitor -18%.
N#CCC(=O)Nc1ccc(C(=O)OCc2ccccc2Oc2ccccc2)cc1 was read as VDR inhibitor 20%.
`Cn1cc(CCNCc2cn[nH]c2-c2ccc(-c3ccccc3)cc2)cn1` gave VDR inhibitor -12%.
COC(=O)Cc1ccc(NC(=S)N2CCN(c3cccc(O)c3)CC2)cc1 was read as VDR inhibitor -1%.
`COc1ccc(CN(C(=O)CN2C(=O)C(C)Oc3ccccc32)C2CCCC2)c(OC)c1` (configuration not stated) gave VDR inhibitor 1%.
Screening O=c1cc(/N=C/c2coc3cc(Br)ccc3c2=O)[nH]c(=S)[nH]1 returned VDR inhibitor 10%.
Screening O=C(Nc1ccccc1C(=O)NC1CC1)c1ccccc1 returned VDR inhibitor 24%.
`CCOc1ccccc1NC(=O)Cc1noc2ccc(C)cc12` gave VDR inhibitor 2%.
Screening CCN(CC)S(=O)(=O)c1ccc(/C=C/C(=O)Nc2ccc(F)cc2F)cc1 returned VDR inhibitor inconclusive.
Screening O=C(CSc1nc2cc(Cl)ccc2s1)NC1CCCc2ccccc21 (configuration not stated) returned VDR inhibitor 13%.
`Clc1ccccc1-c1cncnc1NCCN1CCOCC1` gave VDR inhibitor -25%.
`O=C(COc1ccccc1)N1CCc2ccccc2C1` gave VDR inhibitor -12%.
`COC(=O)Nc1nnc(/C=C/c2ccccc2)s1` gave VDR inhibitor -3%.
Screening Nc1nc(N2CCN(C(=O)c3ccco3)CC2)nc2ccccc12 returned VDR inhibitor 17%.
For CC(C)[C@H](NC(=O)c1ccco1)C(=O)OCC(=O)N1CC(=O)Nc2ccccc21 the results were VDR inhibitor -2%.
For CC(NCc1ccc2c(c1)OCO2)c1ccccc1 (configuration not stated) the results were VDR inhibitor -18%.
For Cn1c(=O)cc(SCC(=O)NCCC2=CCCCC2)c2cc(Cl)ccc21 the results were VDR inhibitor -1%.
For CCCCN(C)CCCNC(=O)CC1Oc2ccccc2NC1=O (configuration not stated) the results were VDR inhibitor -15%.
`Cc1cc(Cl)c(S(=O)(=O)NCc2cccnc2)cc1OCC(N)=O` gave VDR inhibitor 7%.

Reprinted from the part before: six entries, followed by the next part.
Screening Nc1nc(N2CCN(C(=O)c3ccco3)CC2)nc2ccccc12 returned VDR inhibitor 17%.
For CC(C)[C@H](NC(=O)c1ccco1)C(=O)OCC(=O)N1CC(=O)Nc2ccccc21 the results were VDR inhibitor -2%.
For CC(NCc1ccc2c(c1)OCO2)c1ccccc1 (configuration not stated) the results were VDR inhibitor -18%.
For Cn1c(=O)cc(SCC(=O)NCCC2=CCCCC2)c2cc(Cl)ccc21 the results were VDR inhibitor -1%.
For CCCCN(C)CCCNC(=O)CC1Oc2ccccc2NC1=O (configuration not stated) the results were VDR inhibitor -15%.
`Cc1cc(Cl)c(S(=O)(=O)NCc2cccnc2)cc1OCC(N)=O` gave VDR inhibitor 7%.
`O=C(N=C1SC2CS(=O)(=O)CC2N1Cc1ccc(F)cc1)C1CCCO1` (configuration not stated) gave VDR inhibitor -4%.
COc1cc(OC)c(NC(=O)N2CC3CCCN3c3ccccc32)cc1Cl (configuration not stated) was read as VDR inhibitor 1%.
For CCOC(=O)Cc1ccc(NS(=O)(=O)c2ccc(SC)cc2)cc1 the results were VDR inhibitor 6%.
Screening O=C(CNS(=O)(=O)c1ccccc1)NCC(=O)OCc1ccc(Cl)cc1 returned VDR inhibitor 2%.
Screening CCOc1nc(-c2ccccc2)ccc1-c1noc(-c2ccc(OC)c(OC)c2)n1 returned VDR inhibitor 13%.
CC(C)C(=O)NC(NC(=S)Nc1ccc(S(N)(=O)=O)cc1)C(Cl)(Cl)Cl (configuration not stated) was read as VDR inhibitor -8%.
For CC(C(=O)N1CCN=C1c1ccccc1)N1C(=O)c2ccccc2C1=O (configuration not stated) the results were VDR inhibitor -11%.
CS(=O)(=O)N(CC(=O)Nc1ccccc1C(=O)NCc1ccccc1)c1ccc2c(c1)OCCO2 was read as VDR inhibitor 9%.
`CN(C)S(=O)(=O)N1CCC(CO)(Cc2cccc(C(F)(F)F)c2)CC1` gave VDR inhibitor -5%.
For CCN(CC)CCCNC(=O)Cn1nc(-c2ccccc2)ccc1=O the results were VDR inhibitor -1%.
Screening O/N=C/c1cn(-c2ccc(Cl)cc2)nn1 returned VDR inhibitor -1%.
`CCN(CC)CCSc1nnc2c3cc(F)ccc3n(C)c2n1` gave VDR inhibitor 7%.
`O=C(CCCOc1ccccc1)Nc1nncs1` gave VDR inhibitor -9%.
Screening Cc1c(N(C)C(=O)c2ccccc2F)c(=O)n(-c2ccccc2)n1C returned VDR inhibitor 5%.
`COc1ccc(-c2[nH]ncc2/C=N\NS(=O)(=O)c2ccc(Cl)cc2)cc1` gave VDR inhibitor 6%.
COc1cc(C=O)ccc1OCC(=O)N1CCOCC1 was read as VDR inhibitor 19%.
For CC(C)(Cc1ccccc1)NC(=O)C(=O)c1cn(CC(=O)N2CCOCC2)c2ccccc12 the results were VDR inhibitor -14%.
Screening COC(=O)c1cccc(NC(=O)c2cc3ccccc3o2)c1 returned VDR inhibitor -23%.
Cc1ccccc1NC(=O)Cc1nc(COC(=O)CCOc2ccccc2)cs1 was read as VDR inhibitor -1%.
For CCOc1ccc(N(C(=O)CNC(=O)c2ccco2)C(C(=O)NC2CCCC2)c2ccco2)cc1 (configuration not stated) the results were VDR inhibitor -3%.
Screening O=c1[nH]c2ccc(NC(=S)Nc3ccc(F)cc3)cc2[nH]1 returned VDR inhibitor -12%.
CC(=O)Nc1ccc(NC(=O)c2cc(S(=O)(=O)N3CCCCC3)ccc2N2CCOCC2)cc1 was read as VDR inhibitor -4%.
For COc1ccc(C)cc1-n1cnc2cc(C(=O)NC3CCCCCC3)ccc21 the results were VDR inhibitor 8%.
For O=C1/C(=C\c2cc([N+](=O)[O-])ccc2O)SC(=S)N1Cc1ccc(Cl)cc1 the results were VDR inhibitor inconclusive.
`C=CCNC(=O)Nc1ccc2nc(C)sc2c1` gave VDR inhibitor 21%.
Screening Cn1cc(S(=O)(=O)N2CCCC(C(=O)O)C2)cn1 (configuration not stated) returned VDR inhibitor 10%.
CCCCn1ccnc1C(=O)c1ccc(S(=O)(=O)N2CCCC2)cc1 was read as VDR inhibitor -23%.
Screening CCc1ccccc1Nc1nn2c(=O)c3ccc(C(=O)NCCc4ccccc4)cc3nc2s1 returned VDR inhibitor 18%.
For COCC(=O)Nc1cc(Cl)ccc1C the results were VDR inhibitor -11%.
`O=C(COC(=O)c1cc(S(=O)(=O)NCc2ccccc2)ccc1O)c1cc2ccccc2o1` gave VDR inhibitor -11%.
Screening COc1cc(C=C2C(=O)OC(C)(C)OC2=O)ccc1OCC(=O)Nc1ccccc1 returned VDR inhibitor -5%.
Screening CN(C)CCOC(c1ccc(Cl)cc1)c1ccccn1 (configuration not stated) returned VDR inhibitor -2%&1%&-11%&-4%.
`Cc1ccc(C)c(N(CC(=O)NCCSCc2ccco2)S(C)(=O)=O)c1` gave VDR inhibitor 0%.
For CS(=O)(=O)N(CC(=O)NCC1CCCO1)Cc1ccc(Cl)cc1 (configuration not stated) the results were VDR inhibitor -11%.
Screening COc1ccc2nc(SCC(=O)/C(C#N)=C(\C)N)[nH]c2c1 returned VDR inhibitor -15%.
Screening NC(=O)c1nsc(C(=O)N(CC(=O)NCc2ccccc2)c2ccc(F)cc2)c1N returned VDR inhibitor 7%.
O=C(Nc1ccc(Cl)cc1)c1ccc(Br)cc1F was read as VDR inhibitor 0%.
Screening COc1ccc2oc(=O)c(C(=O)NCc3ccccn3)cc2c1 returned VDR inhibitor 21%.
`COc1ccccc1N1CCN(CCCNC(=O)c2cnn(-c3ccc(C)c(C)c3)c2C2CCN(C(=O)OC(C)(C)C)CC2)CC1` gave VDR inhibitor 13%.
`O=C(O)C(Cc1cc(Cl)ccc1Cl)Sc1nc2ccccc2[nH]1` (configuration not stated) gave VDR inhibitor -14%.
Screening COc1ccc(NC(=O)CSc2nc(O)c(C/C=C/c3ccccc3)c(=O)[nH]2)cc1 returned VDR inhibitor 2%.
Screening C[N+]1(CC(O)c2ccccc2)CCCCCC1 (configuration not stated) returned VDR inhibitor 2%.
`C=CCn1c(COc2cc(C)ccc2C(C)C)nnc1SCC(=O)c1c(N)n(C)c(=O)n(C)c1=O` gave VDR inhibitor -8%.
For CCN(CC)C(=O)c1ccccc1NC(=O)CN1C(=O)c2ccccc2C1=O the results were VDR inhibitor -1%.
CSc1nc2ncnc(N)c2[nH]1 was read as VDR inhibitor -4%.
Screening COCCNC(=O)C(c1cccs1)N(C(=O)Cn1nnc2ccccc21)c1cccc(C)c1 (configuration not stated) returned VDR inhibitor -4%.
Screening O=C(N/N=C/c1cccs1)c1cccc2cc[nH]c12 returned VDR inhibitor 6%.
Screening CCOc1cc(/C=N/N=C(/N)c2nonc2N)cc(Br)c1OCc1ccc(Cl)cc1 returned VDR inhibitor 7%.
For O=S(=O)(NC1CC1)c1ccc(S(=O)(=O)N(Cc2ccccn2)C2CC2)cc1 the results were VDR inhibitor -6%.
`CC(NC(=O)CSc1n[nH]c(=O)n1C1CC1)C12CC3CC(CC(C3)C1)C2` (configuration not stated) gave VDR inhibitor 11%.
COc1ccc2nc(NNC(=O)COc3ccccc3)sc2c1 was read as VDR inhibitor -1%.
For CCCCCC(=O)NNC(=O)Nc1ccccc1 the results were VDR inhibitor -8%.
`CCn1c(CNC(=O)c2cccs2)nnc1SCC(=O)Nc1cc(Cl)ccc1C` gave VDR inhibitor 10%.
`CC(C)n1c(SCC(=O)c2ccc(F)cc2)nc2c(sc3ccccc32)c1=O` gave VDR inhibitor -5%.
For CCOC(=O)C1CCN(S(=O)(=O)c2nc3nc(C)cc(C)n3n2)CC1 the results were VDR inhibitor -6%.
Screening Brc1ccc(/C=N/Nc2ccc3ccccc3n2)cc1 returned VDR inhibitor -19%.
Cc1c(Cl)cccc1NC(=O)CCCn1nc([N+](=O)[O-])cc1C was read as VDR inhibitor -4%.
For COc1cc(OC)c(NC(=O)c2oc3ccc4c(c3c2C)C(=O)CC(C)(C)O4)cc1Cl the results were VDR inhibitor 2%.
`CCCn1c(C(Cc2ccccc2)NC(=O)COC)nc2ccccc21` (configuration not stated) gave VDR inhibitor -9%.
CC1=C(C(=O)OC(C)C)C(c2coc3ccccc3c2=O)C2=C(CCCC2=O)N1 (configuration not stated) was read as VDR inhibitor 7%.
CC(=O)c1cccc(OCc2cc(C(=O)N(C)Cc3cnccn3)no2)c1 was read as VDR inhibitor 12%.
O=C(Nc1ccc2c(c1)OCCO2)C1CC(c2ccccc2Cl)=NO1 (configuration not stated) was read as VDR inhibitor 2%.
`CCOc1ccccc1NC(=O)Cn1c(=O)n(-c2ccc(C)c(C)c2)c(=O)c2c(C)c(C(=O)N(C)C)sc21` gave VDR inhibitor 7%.
`C/C(CC(=O)NCc1ccco1)=N\NC(=O)Cc1ccc(Cl)cc1` gave VDR inhibitor 1%.
Cn1cccc1/C=C1/SC(=S)N(CC(=O)O)C1=O was read as VDR inhibitor -6%.
CN(CC(=O)Nc1ccccc1Cl)C(=O)COC(=O)c1ccc([N+](=O)[O-])cc1Cl was read as VDR inhibitor -1%.
`CCOC(=O)c1sc(NC(=O)CCN2CCN(CC)CC2)c(C(=O)OCC)c1C` gave VDR inhibitor -17%.

Source: PubChem BioAssay
